PV pol inh: inhibitors of poliovirus RNA polymerase binding and polymerization | P03300 | poliovirus polymerase elongation, fluorescence polarization; stronger effect = lower value | % elongation, % (compound at 16.7 µg/mL) | hit rate 0.66% among 150,000 | AID 588519; in the data active means % elongation below about 90%; further: some results filed as inactive read as strong as hits
Target sequence (P03300 1749-2209 limits assumed): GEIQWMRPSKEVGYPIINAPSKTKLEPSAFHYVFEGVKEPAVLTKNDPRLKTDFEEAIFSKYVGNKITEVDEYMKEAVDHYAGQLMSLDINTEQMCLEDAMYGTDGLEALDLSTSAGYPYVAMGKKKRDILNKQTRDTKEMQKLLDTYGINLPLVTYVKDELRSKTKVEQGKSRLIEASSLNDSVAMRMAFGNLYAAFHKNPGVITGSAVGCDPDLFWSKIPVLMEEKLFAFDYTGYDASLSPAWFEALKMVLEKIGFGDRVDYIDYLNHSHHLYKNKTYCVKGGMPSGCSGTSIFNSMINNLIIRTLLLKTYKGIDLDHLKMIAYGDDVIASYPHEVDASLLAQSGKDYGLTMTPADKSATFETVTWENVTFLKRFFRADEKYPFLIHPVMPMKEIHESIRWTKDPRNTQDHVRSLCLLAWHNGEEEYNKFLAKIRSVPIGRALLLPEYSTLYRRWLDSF
Mtb MbtI inh: inhibitors of Mycobacterium tuberculosis siderophore enzyme MbtI | P9WFX0 | purified MbtI enzyme, fluorescence intensity read-out | inhibition, %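 (about 17 µg/mL by stock and volumes)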 | hit rate 0.89% among 100,000 | AID 493033;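 active means above 50% in both replicates, above 80% if mildly self-fluorescent; inactive means the rest, strongly fluorescent compounds included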;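 further: 0% = mean of negative and 100% = mean of positive controls; one replicate is shown; some compounds called inactive have numbers as strong as hits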
Mtb MenB inh: inhibitors of Mycobacterium tuberculosis MenB enzyme; P9WNP5; MenB enzyme assay, absorbance read-out; some hits fall short of the stated cut; inhibition, %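 (about 12 µg/mL by stock and volumes)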; hit rate 0.43% among 100,000; AID 540299;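 active means mean of two replicates above 30%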;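 further: 0% = no compound and 100% = wells with inactive enzyme; the first replicate is given; strong numbers were not always called active; inactives centre near -10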
Target sequence (P9WNP5 whole entry, looked up): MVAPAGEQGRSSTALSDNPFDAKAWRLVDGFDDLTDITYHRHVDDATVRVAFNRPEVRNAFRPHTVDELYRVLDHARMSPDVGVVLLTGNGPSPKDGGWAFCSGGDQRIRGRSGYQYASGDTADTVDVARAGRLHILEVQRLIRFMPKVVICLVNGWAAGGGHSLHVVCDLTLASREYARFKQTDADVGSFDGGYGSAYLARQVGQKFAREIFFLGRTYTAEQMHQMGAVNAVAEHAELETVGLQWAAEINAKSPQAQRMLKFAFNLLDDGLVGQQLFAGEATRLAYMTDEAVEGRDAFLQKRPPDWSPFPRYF
PV pol inh intensity: recorded beside PV pol inh, whose call it bears; % elongation; measured here: total intensity read-out; formula for this scale not given here;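 total fluorescence in place of polarization; lower means less elongation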
* = called active by the depositor; i = inactive; x = no result given; & = joins results of further samples.

Start of the listing, in advance, 5 compounds:
SMILES	PV pol inh	PV pol inh intensity	Mtb MbtI inh	Mtb MenB inh
O=c1cc(CSc2nnc(COc3ccc(Cl)cc3)n2Cc2ccco2)nc2ccc(Br)cn12	105.0	101.0	42.7	-13.5
CN(C)c1cccc(C(=O)Oc2ccccc2Cl)c1	96.0	97.0	84.7	-25.3
CSc1nc(-c2ccccc2)c(C#N)c(N2CCCC2)n1	100.0	100.0	-9.4	4.4
CC(Sc1nnc(Nc2ccccc2F)s1)C(=O)N1CCc2ccccc21 (stereo not drawn)	103.0	108.0	8.7	-21.5
C=CCN=C(SCc1ccccc1)N1CCCC1	101.0	94.0	x	-52.1

Results, from the first entry:
SMILES	PV pol inh	PV pol inh intensity	Mtb MbtI inh	Mtb MenB inh
O=c1cc(CSc2nnc(COc3ccc(Cl)cc3)n2Cc2ccco2)nc2ccc(Br)cn12	105.0	101.0	42.7	-13.5
CN(C)c1cccc(C(=O)Oc2ccccc2Cl)c1	96.0	97.0	84.7	-25.3
CSc1nc(-c2ccccc2)c(C#N)c(N2CCCC2)n1	100.0	100.0	-9.4	4.4
CC(Sc1nnc(Nc2ccccc2F)s1)C(=O)N1CCc2ccccc21 (stereo not drawn)	103.0	108.0	8.7	-21.5
C=CCN=C(SCc1ccccc1)N1CCCC1	101.0	94.0	x	-52.1
Cn1c(SCc2ccc(C(F)(F)F)cc2)nnc1C(F)(F)F	106.0	99.0	-1.7	4.4
COc1ccccc1-c1nnc(-c2cccs2)o1	98.0	93.0	x	-3.3
Cn1cnc2cc(NCc3ccc(Br)cc3)ccc21	98.0	105.0	-87.6	-32.4
Nn1cc(-c2ccccc2)nc1SCC(=O)Nc1cccc2nsnc12	105.0	102.0	99.2	-25.9
CCN(CC)C(=O)c1csc(Nc2ccc(C)cc2)n1	105.0	103.0	3.9	-24.0
CC1=C(O)C(=O)/C(=C/N(C)C)C1	99.0	100.0	-6.9	-6.0
Cc1noc(C)c1CSCC(=O)Nc1nc(SCc2ccc(Cl)cc2)n[nH]1	109.0	108.0	-11.1	-16.5
O=C1Nc2ccccc2C12OCCCO2	x	x	-1.4	-11.1
CCCn1c(C)cc(/C=C(\C#N)C(=O)N2CCN(S(=O)(=O)c3ccccc3C(F)(F)F)CC2)c1C	104.0	98.0	20.1	2.3
O=C(CSc1nnc(-c2ccc(Cl)cc2)o1)N1CCCC1c1ccc2c(c1)OCCCO2 (stereo not drawn)	102.0	97.0	1.8	-21.3
N#Cc1c2ccc(O)cc2n2ccccc12	45.0	242.0	1.4	-95.3
CC(Cc1cccs1)NS(=O)(=O)c1ccccc1 (stereo not drawn)	105.0	109.0	5.8	-15.3
CC(C)(C)NS(=O)(=O)c1ccc(N2CCCC2=O)cc1Cl	103.0	105.0	-0.5	-50.5
Cn1c(=NC(=O)c2cccc(OC(F)F)c2)sc2ccccc21	100.0	98.0	97.7	-27.4
CC(C)(C)c1ccc(OCC(=O)n2ncc(C#N)c2N)c(C(C)(C)C)c1	100.0	103.0	-1.2	-12.5

The listing continues:
SMILES	PV pol inh	PV pol inh intensity	Mtb MbtI inh	Mtb MenB inh
O=C(c1cc2nc(-c3ccccc3)cc(C(F)(F)F)n2n1)N1N=C(C(F)F)CC1(O)C(F)F (stereo not drawn)	101.0	103.0	28.2	-19.7
Cc1cccc(-n2c(N)cc(=O)nc2SCC(=O)NC2CCCCC2)c1	99.0	101.0	-1.0	-6.8
Cc1ccccc1OCc1nc2ccccc2c(=O)n1/N=C/c1ccco1	101.0	90.0	-2.2	-33.6
O=C(N/N=C/c1c[nH]c2ccccc12)c1cccc(O)c1	105.0	102.0	31.3	-19.0
BrCCOc1cccc(Br)c1	102.0	103.0	-7.7	x
Cc1cccc(C(=O)Nc2ccc(NC(=O)c3ccco3)cc2)c1	104.0	108.0	11.1	-25.7
CC(C)n1c(NCc2ccccc2O)nc2ccccc21	101.0	101.0	2.1	15.2
CC1=C(C(=O)N2CCOCC2)C(c2ccc(C(F)(F)F)cc2)C2=C(CCCC2=O)N1 (stereo not drawn)	109.0	113.0	x	-2.9
COc1ccc2cc3c(N)nn(C(=O)Cc4c(F)cccc4Cl)c3nc2c1	101.0	107.0	0.2	-12.5
O=C(OCc1ccc(Cl)cc1)c1cccs1	101.0	102.0	-8.7	-12.3
CN(C)C(=S)Nc1ccccc1	108.0	111.0	-12.0	9.4
O=c1[nH]c2ccccc2nc1NC(=S)Nc1ccccc1	110.0	112.0	x	-113.3
C=C(C)CC1C(=O)NN=C1C (stereo not drawn)	105.0	113.0	-17.8	2.2
CCCNC(=O)c1c(C)c(C(=O)OCC)n(CC)c1C	100.0	103.0	-1.1	8.3
C=CCNC(=S)N1CCNC(=O)C1CC(=O)Nc1cc(Cl)ccc1OC (stereo not drawn)	99.0	99.0	13.6	9.9
CCCNC(=O)Cn1c2c(c(-c3ccccc3Cl)cc1=O)CCC2	104.0	108.0	-36.9	-19.6
Clc1ccc2nc(-c3ccccc3)cn2c1	102.0	100.0	37.2	-20.4
CNC(=O)c1cnc2cc(Cl)ccc2c1OC	99.0	93.0	x	-12.6
Cc1c(Cl)cccc1NC(=S)NN(C)C	103.0	104.0	-3.1	-7.7
O=C(CN1C(=O)COc2ccccc21)N1CCCC1	105.0	102.0	-10.1	-7.2

(more compounds)
SMILES	PV pol inh	PV pol inh intensity	Mtb MbtI inh	Mtb MenB inh
CCn1cc(-c2cc(C(=O)O)c3ccccc3n2)cn1	103.0	102.0	89.5	-11.3
CC(C)CCn1c(O)c(N=NC(N)=O)c2ccccc21	106.0	104.0	1.8	0.9
O=C(Nc1ccc(-c2nc3ccccc3[nH]2)cc1)c1ccc(-c2ccccc2)cc1	101.0	100.0	-8.9	-47.7
O/N=C(\Cn1cncn1)c1ccc(Cl)cc1Cl	102.0	98.0	-8.2	-15.7
CC1(C)CC(N2C(=O)c3ccccc3C2(O)Cc2ccccc2)CC(C)(C)N1 (stereo not drawn)	99.0	99.0	x	0.7
Cn1ccnc1-c1ccc(-c2nccn2C)cc1	100.0	100.0	89.7	4.8
CC(NC1CCCC(C)C1C)C(=O)Nc1ccc2c(c1)OCCO2 (stereo not drawn)	99.0	97.0	1.6	4.6
Ic1ccc(Nc2nc3nonc3n3nnnc23)cc1	103.0	109.0	x	-6.8
Cc1ccc(C2=NC(c3ccc(F)cc3)=Nc3ccc(Cl)cc3N2)o1	101.0	104.0	3.1	11.7
CCn1c(Cc2ccccc2)nnc1SCC(=O)Nc1ccccc1	104.0	100.0	-13.4	-67.1
COc1ccccc1C=Nc1ccc2c(c1)nc(C)n2Cc1ccccc1	103.0	109.0	14.3	-16.1
COc1ccc(/C=N/O)cc1COc1ccc(NC(C)=O)cc1	102.0	103.0	4.4	3.6
COc1cc2c(c(OC)c1OC)-c1ccc(O)c(=O)cc1C(NC(C)=O)CC2 (stereo not drawn)	100.0	104.0	-15.1	-82.1
CC1=C(C(=O)Nc2ccccc2)C(CC(C)C)n2ncc(C(=O)Nc3ccccc3)c2N1 (stereo not drawn)	103.0	102.0	40.5	-16.6
CC(C)C(NC(=O)c1ccc(C2SCC(=O)N2Cc2ccco2)cc1)C(C)C (stereo not drawn)	103.0	101.0	-4.0	-7.4
Cc1ccc(N/C(=C/C(=O)c2ccccc2)C(=O)O)cc1Br	103.0	110.0	x	9.3
CCC(=O)Nc1c(Cl)nc(C)c(Cl)c1C	103.0	96.0	x	4.7
CC1(C)CC(CC#N)(c2ccccc2)CCO1 (stereo not drawn)	99.0	100.0	-2.8	21.1
CCOC(=O)C1=C(SCC)c2cc3c(n2C1=O)CCCC3	98.0	92.0	-4.4	-1.5
NCCSC12CC3CC(CC(C3)C1)C2	103.0	100.0	7.0	8.9

The list goes on.
SMILES	PV pol inh	PV pol inh intensity	Mtb MbtI inh	Mtb MenB inh
COc1ccc(-c2csc(N)n2)cc1C	102.0	99.0	25.1	-7.4
CC1CN(C(=O)Cn2nc(C(=O)O)c3ccccc3c2=O)CC(C)O1 (stereo not drawn)	103.0	89.0	7.8	-37.2
CCN(CC)C(=O)c1ccc2nc(N)sc2c1	103.0	104.0	13.5	-34.6
CC1CCN(S(=O)(=O)N2CCCC(C(=O)Nc3ccccc3C(=O)c3ccccc3)C2)CC1 (stereo not drawn)	105.0	101.0	-9.9	-14.1
N#C/C(=C/c1ccccc1)c1ccc(C#N)cc1	97.0	103.0	62.5	-6.5
COc1ccccc1NC(=O)Cc1nn(C)c(=O)c2ccccc12	102.0	102.0	1.7	-10.4
Fc1ccc(-c2nnc(Cc3nnc(-c4ccc(F)cc4)o3)o2)cc1	102.0	103.0	-17.2	-32.7
COc1ccc(/C=N/N(C)C2=NCCN2)c(OC)c1OC	100.0	101.0	8.7	-1.0
CN(/N=C/c1ccccc1)C1=NS(=O)(=O)c2ccccc21	101.0	99.0	15.6	5.7
O=C(O)c1ccccc1N1C(=O)c2ccccc2C1=O	102.0	105.0	x	-3.8
Oc1ccc(Br)cc1C=Nc1cccc(-c2nc3ccccc3o2)c1	99.0	105.0	-218.7	-32.8
O=C(CCc1ccccc1)N/N=C/c1ccncc1	99.0	102.0	15.7	-2.7
COc1cccc(C(=O)OCc2ccccc2C#N)c1O	109.0	108.0	-8.6	-12.4
Nn1c(SCC(=O)c2ccc[nH]2)nnc1SCC(=O)c1ccc[nH]1	119.0	129.0	15.2	-7.0
COc1ccc(CCNC(=O)CCc2nnc3n(C)c(=O)c4sccc4n23)cc1OC	101.0	106.0	7.9	6.4
N#CC(=C=[N-])c1nc2ccccc2nc1-[n+]1ccccc1	136.0&103.0	199.0&102.0	-0.8&6.4	-34.4&-13.6
CC(C)Cn1c2ccccc2c2cc(C(=O)O)ccc21	103.0	100.0	9.1	-14.2
O=c1oc2c3c(c(Cl)cc2c2c1CCC2)OCN(Cc1ccccc1)C3	100.0	105.0	116.9	-0.2
O=C(CNS(=O)(=O)c1ccccc1F)OCc1nc2ccccc2s1	108.0	123.0	12.9	-10.7
CSCc1cccc(C(=O)O)c1	98.0	99.0	11.3	-14.9

Later entries:
SMILES	PV pol inh	PV pol inh intensity	Mtb MbtI inh	Mtb MenB inh
CCOC(=O)c1cnc(N2CCCCC2)nc1C	102.0	101.0	-2.4	-20.3
CCOC(=O)c1c(C)nc2ccccc2c1N	100.0	101.0	45.6	5.8
COC(=O)COc1cc(O)c2c(=O)c(-c3ccc4c(c3)OCCO4)coc2c1	111.0	108.0	-17.2	-20.3
Cc1ccc(Cl)cc1N(C)C(=O)c1cc2c(-c3ccc(Cl)cc3)nn(C)c2s1	103.0	106.0	5.7	-23.5
COc1cc2ccc(=O)oc2cc1O	101.0&101.0	98.0&99.0	i	5.2&-1.6
O=C(O)CCCN=CC1=C(O)CCCC1=O	106.0	102.0	23.6	-12.0
COC(=O)c1cc(S(=O)(=O)NCCCN2CCN(Cc3ccccc3)CC2)cn1C	99.0	102.0	-3.2	4.4
O=C1NCCCC1C(=O)Nc1ccccc1C(F)(F)F (stereo not drawn)	99.0	100.0	-7.1	-7.6
CSc1ccc(C(=O)CCC(=O)OCc2ncc(-c3ccccc3)o2)cc1	105.0	106.0	-7.0	-35.6
CCC1Oc2ccc(C)cc2N(Cc2ccc(F)cc2)C1=O (stereo not drawn)	98.0	100.0	8.5	-6.0
O=C(c1c[nH]c2ccc(S(=O)(=O)Nc3ccccc3F)cc2c1=O)N1CCOCC1	104.0	100.0	-2.6	4.3
CCOC(=O)c1c(NC(=O)c2ccc(Cl)cc2Cl)n[nH]c1N	96.0	103.0	-4.5	1.7
O=S(=O)(NCc1ccccc1)c1ccc(Cl)cc1	104.0	102.0	-13.1	4.9
O=C(/C=c1/[nH]c(=O)/c(=C/c2cccc(C(F)(F)F)c2)s1)c1ccco1	115.0	121.0	-3.5	-11.8
CCc1cccc(NC(=O)C2=C(C)C(=O)OC23CCCCC3)c1	101.0	101.0	-2.9	-18.2
Cc1ccc(NC(=O)CN2C(=O)C(C)(C)Oc3ccc(C(=O)N4CCCC4)cc32)cc1	102.0	102.0	-2.3	-9.8
CC(=O)NN1C(=O)/C(=C2\C(=O)N(C)c3ccccc32)SC1=S	101.0	104.0	12.6	-2.0
O=c1c2ccccc2c2nc3c(=O)c4ccccc4c3nc12	95.0	97.0	-1.9	6.6
Cc1cc2n(n1)CCCN2CC(=O)N1CCc2ccccc21	102.0	101.0	-15.4	-13.4
CCOC(=O)c1c(N)sc(SC#N)c1-c1ccccc1	97.0	98.0	31.9	-9.8

The list continues.
SMILES	PV pol inh	PV pol inh intensity	Mtb MbtI inh	Mtb MenB inh
CCCCC1=NC2(CCCC2)C(=O)N1Cc1ccc(-c2ccccc2-c2nn[nH]n2)cc1	100.0	100.0	-3.0	0.3
N#CC(C#N)=C(C#N)c1ccc(Nc2ccccc2)cc1	100.0	102.0	-2.7	x
CN(C)c1c(F)cc(C(=O)NC(=O)NCc2cccnc2)cc1F	102.0	105.0	-7.7	-12.9
CC1CCN(CC(=O)Nc2ccc(S(=O)(=O)N3CCCCC3)cc2)CC1	101.0	102.0	6.8	20.3
CCSCC1COC(c2cn(CC)c3ccccc23)=N1 (stereo not drawn)	102.0	103.0	-70.2	-42.3
CC1=C(C(=O)Nc2ccccn2)C(c2ccc(C)cc2)C2=C(CC(C)(C)CC2=O)N1 (stereo not drawn)	103.0	101.0	-46.6	-38.5

Screening data deposited in PubChem by ICCB-Longwood Screening Facility, Harvard Medical School.
